Bfl-1 A1 inh: inhibitors of the anti-apoptotic protein A1, read as caspase activation | actives 0.066% (n = 330,000) | MEF A1-2A-BIM cells, Caspase-Glo 3/7 luminescence, 3 h; percent of clofoctol response, vehicle zero | caspase activation, % (no concentration beside the values);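 active means over half of replicate activation scores above 10%, or exactly half above 10 with the replicate mean above 10; inconclusive means replicate mean below 10 yet half the replicates above 10; inactive means over half of replicates below 10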;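 further: wells of about 30 µL received 50 nL stock; many hits fall short of the cut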
RanGTP-Impb inh: disruptors of Ran-importin-beta complex formation – biochemical, FRET, CFP-Ran, YFP-importin-beta, homogeneous, primary screen; cell-free CFP-Ran/YFP-importin-beta FRET ratio; inhibition, % (no concentration beside the values); actives 1.1% (n = 300,000); AID 2216;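 active means most replicates above 15%; inconclusive means exactly half above 15%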;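 further: 0% = DMSO wells and 100% = Ran loaded with GDP instead of GTP; wells of about 40 µL received 100 nL stock; the first replicate is given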
LANA-H2A inh: blocks KSHV LANA binding to histone H2A/H2B; Q9QR71; cell-free LANA-H2A/H2B peptide, fluorescence polarization; inhibition, % (concentration not given with the values); actives 0.6% (n = 320,000); AID 2629; in the data active means inhibition mostly above about 10%, no sharp cut-off; inactive means mostly below about 6.7%;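 further: stock transfer was 7.5 nL into about 10 µL; 0% = median of vehicle wells and 100% = median of positive control wells; one replicate is shown; the record names a cut of 25% in any replicate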
Vif TR-FRET: HIV-1 Vif–A3G interaction blockers – biochemical, TR-FRET, GST-Vif 1-94, biotin-A3G peptide, dose response retest, primary screen (AID 1117319); inhibition, %; hits with a dose series show IC50 in µM; actives 0.57% (n = 260,000); TR-FRET GST-Vif / biotin-A3G peptide binding; higher % means a stronger effect; test concentration not given here; strong numbers were not always called active;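 active means above the screen mean plus three standard deviations and confirmed in dose response; inconclusive means results disagree or hit not tested in dose response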;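 further: Vif residues 1-94 fused to GST binding biotinylated APOBEC3G peptide 110-148; 0% = full assay without inhibitor and 100% = GST in place of GST-Vif; retest series ran down from 100 µM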
Beta cell apopt: blocks beta cell apoptosis. actives 0.8% (n = 300,000). protection from apoptosis, % (no concentration beside the values). INS-1E cytokine-induced death, ATP luminescence, 48 h; percent of positive-control rescue, neutral wells zero;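 active means all replicates at 75% or more, or half of them and the mean; inconclusive means half reach 75% but not the mean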;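 further: 0% = cytokine-treated negative control wells and 100% = positive control rescue; higher means more ATP so stronger rescue from cytokine killing; wells of about 40 µL received 100 nL stock; the first replicate is given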
T cruzi inh: blocks replication of Trypanosoma cruzi; T. cruzi beta-gal in NIH3T3, luminescence, 90 h; inhibition, % (no concentration beside the values); actives 1.4% (n = 300,000); AID 1885;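 active means mean inhibition across valid replicates above about 55%, limit read from the data; inconclusive means mean below that limit but half or more replicates reach it; inactive means mean below it, under half of replicates reach it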;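 further: signal also drops with host cell toxicity which is not excluded here; 0% = plate median of DMSO wells and 100% = zero luminescence signal; higher percent means less beta-gal luminescence so fewer parasites; stock transfer was 50 nL into about 50 µL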
Calb FLC: C. albicans growth modulation with fluconazole | actives 0.57% (n = 300,000) | growth inhibition, % (concentration not given with the values) | AID 1979 | C. albicans CaCi-2 (fluconazole-resistant clinical isolate) + fluconazole, Alamar Blue growth, 48 h;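 active means most replicates above 75%; inconclusive means exactly half above 75%; inactive means most below 75%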;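 further: all wells also contain fluconazole at 8 µg/ml as a sub-toxic cotreatment; 0% = median of DMSO wells and 100% = median of geldanamycin control wells; wells of about 8 µL received 7.5 nL stock; the first replicate is given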
AF4-AF9 inh: blocks AF4 peptide binding to human AF9 | AlphaScreen, biotin-AF4 peptide binding to FLAG-AF9 | inhibition, % at 10 µM | actives 0.47% (n = 350,000);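 active means every replicate reaching a set inhibition limit, whatever the replicate mean, cut at about 25% in these data; inconclusive means mean inhibition reaches that limit but some replicates miss it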;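 further: 0% = plate neutral control median and 100% = total signal loss; the record names both 10 and 1 µM as test concentration; the first replicate is given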
Numbers without * were called inactive; i = inactive; ? = inconclusive; · = not tested or not shown; & = joins results of further samples.

The line under a structure holds: Bfl-1 A1 inh	RanGTP-Impb inh	LANA-H2A inh	Vif TR-FRET	Beta cell apopt	T cruzi inh	Calb FLC	AF4-AF9 inh
COc1ccc(CNS(=O)(=O)NCc2ccc(C)cc2)cc1
→ -0.8	3.1	-6.0	-0.9%	6.5	-1.5	-11.1	-0.6
COc1nc(OC)nc(Oc2ccc(Cl)cc2[N+](=O)[O-])n1
→ 1.0	4.5	-4.6	·	-10.9	-8.7	-2.0	3.0
Cc1csc2nc(O)c(C(=O)NCCC3=CCCCC3)c(=O)n12
→ -0.5	5.8	-0.5	-7.4%	·	3.8	-0.9	?
CCC1=NC(c2ccc(OC)cc2)N(O)C1(C)C (stereo not given)
→ -1.2	-2.0	0.5	-0.8%	-5.9	7.9	-12.0	·
CS(=O)(=O)N1CCN(c2ccnc3cc(Cl)ccc23)CC1
→ -0.3	2.9	-3.2	-4.2%	0.2	-13.3	1.2	-1.0
O=C(NCc1cccc(C(F)(F)F)c1)c1ccc2c(c1)OCCO2
→ 0.4	1.0	2.6	·	-4.1	6.5	5.5	-1.0
COC(=O)C1=CNC=C(C(=O)OC)C1c1ccc(Cl)cc1
→ 0.1	3.7	-1.8	3.2%	-2.9	5.7	4.7	·
CCC(C)Cn1c(S(=O)(=O)O)nc2ccccc21 (stereo not given)
→ 0.6	-2.4	-4.8	11.9%	2.0	-4.6	1.9	·
CCOC(=O)c1ccc(N2C(=O)c3n[nH]c(C)c3C2c2ccc(OC)cc2OC)cc1 (stereo not given)
→ 0.6	1.5	-1.3	76.4%&-2.5%	·	24.1	-55.1	·
CC(OC(=O)CN(C)S(=O)(=O)c1ccc(Cl)cc1)C(=O)Nc1ncc(Cl)cc1Cl (stereo not given)
→ 0.3	?	0.8	2.3%	-2.8	-31.5	-3.3	·
Cc1cc2ncc(C(N)=O)cn2n1
→ -1.2	-2.7	-2.3	·	·	-9.3	?	-2.1
CCc1cccc(CC)c1NC(=O)COC(=O)CC1c2ccccc2CCN1S(=O)(=O)c1ccccc1 (stereo not given)
→ 0.7	-2.0	0.4	26.5%	6.0	17.6	-1.3	6.7
COc1ccc(C(C)(C)C)cc1NC(=O)C1CC(=O)N(C2CCCC2)C1 (stereo not given)
→ -2.3	·	-3.9	-9.9%	-3.2	·	·	0.1
COc1ccc(-c2ncc(CN3CCC(CO)(Cc4cccc(OC)c4)CC3)cn2)cc1
→ 0.6	81.9*	1.0	14.5%	-5.0	39.6	10.0	4.6
CCOC(=O)c1c(S(=O)(=O)NCC(=O)Nc2cc(C)ccc2OC)c(C)n(C)c1C
→ 1.2	4.1	-4.4	5.2%	-2.9	-1.1	-6.1	5.8
CCC(=O)Nc1nc(=S)ss1
→ -0.9	0.8	0.0	1.2%	·	-27.8	5.8	·
O=C(NCCCN1CCN(Cc2ccccc2)CC1)c1nnc(Cc2c(F)cccc2Cl)o1
→ 0.4	5.2	0.3	19.3%	0.8	?	-10.4	·
O=C(COc1ccccc1F)NNC(=O)c1ccc(N2CCCCC2)c([N+](=O)[O-])c1
→ -0.2	-0.7	6.8	·	-3.9	-1.7	14.3	·
C[C@@H]([C@H](O)c1ccccc1)N(C)C(=S)Nc1ccccc1
→ 1.0	6.9	2.4	-3.3%	-8.4	0.1	9.4	-2.1
CCN(CC)C(=S)SCC(=O)c1ccc(F)cc1
→ -1.3	1.7	4.7	-5.2%	·	-15.8	-0.5	·
COc1cccc(OC)c1OCC(O)CN1CCN(c2ccc(F)cc2)CC1 (stereo not given)
→ -0.1	0.3	-2.4	0.6%	1.7	-16.1	-3.3	5.3
O=C(CN(Cc1cccs1)C(=O)CSc1nnc(COc2ccccc2)o1)NC1CCCCC1
→ -0.2	3.1	4.0	3.5%	-0.4	27.2	·	·
CCOC(=O)c1ccc(NC(=S)N2CCC(O)CC2)cc1
→ 0.0	-0.4	i	2.4%	-5.3	-4.4	-2.5	2.5
COc1nc(N(C#N)CC(N)=O)nc(N2CCCC2)n1
→ 1.3	1.2	1.2	?	-3.1	-10.0	-0.8	·
CCOC(=O)c1[nH]c(C)c(C(=O)Nc2ccc(C)c(C)c2)c1C
→ -1.1	?	-0.1	0.1%	5.3	-5.9	-1.3	1.5
Cc1cc(C)c2c(CC(=O)NCc3ccco3)coc2c1
→ 0.5	4.6	-0.2	4.3%	-0.9	-3.7	-0.6	·
OC(COc1ccccc1CNCc1cccnc1)CN1CCc2ccccc2C1 (stereo not given)
→ -0.4	3.2	4.5	-4.7%	4.4	12.0	7.7	11.2
COc1ccc([C@]2(C(C)C)ON(c3ccccc3C(F)(F)F)C2=O)cc1
→ -0.3	·	4.8	·	-1.3	·	·	0.1
CCCCC(=O)Nc1nnc(SCC(=O)NCC2CCCO2)s1 (stereo not given)
→ 0.4	0.5	3.1	-6.8%	·	19.1	-2.5	-2.7
O=C(C1=C(O)C(=O)N(CC2CCCO2)C1c1cccc(Cl)c1)c1ccco1 (stereo not given)
→ -0.1	3.3	-2.2	·	·	-17.8	8.9	-0.6
Cc1ccc(Nc2nc(C)cc(C)c2C(N)=O)cc1
→ 0.3	1.9	2.7	1.1%	1.5	-10.9	-0.5	·
CSCC[C@H](NS(=O)(=O)c1ccc(C)cc1)C(=O)N1CCC(C(=O)N[C@@H](Cc2ccc(O)cc2)C(=O)O)CC1
→ -0.2	?	-2.1	·	-7.8	-5.7	-1.3	-1.0
COc1ccc(CNC(=O)c2cc3ccccc3o2)cc1OC
→ 1.2	?	2.8	·	·	-9.6	2.5	-3.0
Cc1oc2cc(O)cc(O)c2c(=O)c1-c1ccc2c(c1)OCCCO2
→ -0.6	3.3	3.3	23.3%	·	13.6	-7.1	4.6&7.0
O=C1CCCCC1C(Nc1ccc(Cl)cc1)c1ccccc1 (stereo not given)
→ -0.5	4.7	-2.7	-7.1%	-9.4	5.7	?	·
COC(=O)/C(=C/N(C)C)C(=O)N1CCN(c2ccc(Cl)c(Cl)c2)CC1
→ 0.7	-0.6	4.4	-6.0%	-19.7	-7.8	5.6	0.9
CCCCN(C)C(=O)Cc1c(OC)ccc2cc(Br)ccc12
→ 0.0	-1.7	1.6	-20.2%	-3.7	0.3	4.9	·
FC(F)(F)c1ccc(C2[C@H]3CN(CC4CCCCC4)[C@H](c4ccccc4)C34CC2(c2cccnc2)C4)cc1 (stereo not given in full)
→ -0.4	0.6	3.1	·	9.6	49.8	7.0	·
O=C(N/N=C/c1c(F)c(F)c(F)c(F)c1F)c1cc(-c2ccccc2)nc2ccccc12
→ 0.0	0.8	-6.2	-2.9%	·	-7.4	-2.0	-1.6
O=C(c1ccccc1)c1cncc(Br)c1
→ -0.3	-0.3	-2.4	-13.0%	-5.2	-1.5	-14.8	·
CC(=O)N(Nc1ccccc1)c1ccccc1
→ 1.3	2.3	1.1	-6.7%	-5.1	-0.8	0.7	5.9
CC(C)(C)NC(=O)CSc1nnnn1C(C)(C)C
→ 0.0	-1.1	2.8	0.1%	-4.2	-7.0	-13.6	·
COc1ccc(NC(=O)C2CCCN2S(=O)(=O)c2cccs2)c([N+](=O)[O-])c1 (stereo not given)
→ 0.4	1.0	-2.6	2.1%	-0.1	-11.5	-7.4	2.3
O=C(/C=C/c1ccc([N+](=O)[O-])cc1)N1CCN(Cc2ccccc2)CC1
→ 1.1	6.4	-3.6	7.1%	3.1	34.5	-16.8	1.5
COc1ccc(NC(=O)CC2CCCC2)cc1OC
→ 1.1	3.4	3.0	·	-2.2	-22.8	2.8	0.8
CCC(C)c1ccc(S(=O)(=O)N2CCN(CC(O)CN3CCOCC3)CC2)cc1 (stereo not given)
→ 1.0	·	-6.5	-6.2%	-3.5	·	·	0.7
COc1ccc(CNC(=O)CCSCc2cccc(Cl)c2)c(OC)c1
→ 0.4	2.5	-4.0	-10.2%	-0.8	10.1	-5.9	1.1
Cc1cccc(NC(=O)NNC(=O)COc2ccc(Cl)cc2)c1
→ 0.6	-5.2	0.6	1.4%	-4.9	5.1	-20.2	·
Cc1cccc(C)c1OCC(=O)NNC(=O)Nc1ccc(Cl)cc1
→ 0.1	?	-1.5	14.5%	2.5	13.3	8.0	1.7
O=C(Oc1ccc(-c2nnco2)cc1)N1CCOCC1
→ -0.5	-1.3	-1.5	-4.7%	-3.9	-9.8	-9.8	·
CCCCN(CCCNC(=O)C1CCCN(S(=O)(=O)CC)C1)Cc1ccccc1 (stereo not given)
→ 0.2	-1.9	3.1	5.9%	-1.4	-1.6	-5.7	·
Cc1oc2ccc(O)c(CN(C)C)c2c1C(=O)c1ccccc1
→ -1.0	2.8	1.7	?	-0.3	-9.7	27.3	-0.5
CCCCCn1c(=O)c(C(=O)OCC)c(O)c2ccccc21
→ 0.3	-2.5	·	20.5%	-0.3	-3.1	21.1	·
CC(C)NC(=O)/C(C#N)=C/c1ccc(N(C)C)o1
→ -0.3	40.8*	-46.8	-5.3%	-0.9	-2.5	4.4	3.3
Cc1oc(-c2cccc(Cl)c2)nc1CN1CCC(C(=O)N2CCN(c3ccccn3)CC2)CC1
→ 1.0	·	-3.5	6.2%	7.4	·	·	·
Cc1cccc(NC(=O)CSc2nc(COc3ccccc3)nc3ccccc23)c1C
→ 0.0	-0.5	-4.9	-16.1%	-3.3	-10.5	12.0	·
COc1ccc(OCC(=O)Nc2cccc(C(=O)Nc3ccccc3C(=O)O)c2)cc1
→ 0.7	-0.9	2.0	-3.3%	-0.7	-0.5	-1.5	·
O=C(CSc1nnc(SCc2cccc3ccccc23)s1)N/N=C/c1c[nH]c2ccccc12
→ -0.6	-3.2	0.2	·	-1.2	6.6	-4.8	·
CC(C)Oc1ccc(N2CC(C(=O)OCC(=O)NCc3ccccc3)CC2=O)cc1 (stereo not given)
→ 0.1	1.6	0.2	3.0%	-6.7	-10.4	-17.9	·
CCOc1ccc(C2C(C(=O)OC)=CN(CCOC)C=C2C(=O)OC)cc1
→ 0.0	20.6*	5.9	-3.6%	3.7	-6.9	21.1	·

Assay outcomes (PubChem)
